# ALR inh – blocks human ALR sulfhydryl oxidase activity; P55789; purified ALR, DTT oxidation, H2O2 HRP-luminol luminescence; inhibition, % (concentration not given with the values); 290,000 tested, 3.8% active;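 active means mean and each replicate at 75% or more; inconclusive means only one of the two met; inactive means neither met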;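 further: stock transfer was 7.5 nL into about 7.5 µL; 0% = neutral wells and 100% = wells with inactivated enzyme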
# Target sequence (P55789 whole entry, looked up): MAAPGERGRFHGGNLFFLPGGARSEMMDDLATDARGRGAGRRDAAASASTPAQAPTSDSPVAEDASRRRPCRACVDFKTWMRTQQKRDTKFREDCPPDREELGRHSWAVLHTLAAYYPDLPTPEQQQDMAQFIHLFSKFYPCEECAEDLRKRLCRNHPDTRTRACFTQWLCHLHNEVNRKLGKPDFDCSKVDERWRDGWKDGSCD
# RanGTP-Impb inh – disruptors of Ran-importin-beta complex formation – biochemical, FRET, CFP-Ran, YFP-importin-beta, homogeneous, primary screen; inhibition, % (concentration not given with the values); cell-free CFP-Ran/YFP-importin-beta FRET ratio; 300,000 tested, 1.1% active; AID 2216;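 active means most replicates above 15%; inconclusive means exactly half above 15%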;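 further: 0% = DMSO wells and 100% = Ran loaded with GDP instead of GTP; wells of about 40 µL received 100 nL stock; the first replicate is given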
# HNF4A DNA FP – change in binding of human HNF4 alpha to DNA. activity change, % at 10 µM. P41235. HNF4a-FITC DNA binding, fluorescence polarization, 1 h. 360,000 tested, 0.3% active; in the data active means activity change above about 30%, passing the limit was not always enough;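 further: controls were the assay level and a saturating level of protein; the project sought stronger binding though the title names inhibitors; some compounds called inactive have numbers as strong as hits; positive values seem to mean higher polarization but the record does not say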
# Target sequence (P41235 whole entry, looked up): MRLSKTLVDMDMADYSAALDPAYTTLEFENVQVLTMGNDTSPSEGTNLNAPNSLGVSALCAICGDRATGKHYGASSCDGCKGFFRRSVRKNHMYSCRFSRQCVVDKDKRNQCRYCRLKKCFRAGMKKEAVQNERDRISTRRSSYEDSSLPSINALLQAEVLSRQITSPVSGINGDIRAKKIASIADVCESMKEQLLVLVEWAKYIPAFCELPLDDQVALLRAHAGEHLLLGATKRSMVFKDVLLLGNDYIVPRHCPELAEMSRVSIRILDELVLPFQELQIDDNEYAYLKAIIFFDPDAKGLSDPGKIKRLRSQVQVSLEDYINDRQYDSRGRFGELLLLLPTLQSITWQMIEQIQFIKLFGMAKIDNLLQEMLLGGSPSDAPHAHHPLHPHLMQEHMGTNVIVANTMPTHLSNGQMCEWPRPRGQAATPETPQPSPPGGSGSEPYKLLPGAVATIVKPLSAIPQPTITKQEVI
# Vif A3G – inhibitors of Vif binding to APOBEC3G peptide, primary screen, biochemical, TR-FRET, GST-Vif 1-94, biotin-A3G peptide, dose response retest (AID 1117319); TR-FRET GST-Vif / biotin-A3G peptide binding; higher % means a stronger effect; test concentration not given here; strong numbers were not always called active; one-dose inhibition, %; IC50 in µM for titrated hits; 260,000 tested, 0.57% active;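 active means above the screen mean plus three standard deviations and confirmed in dose response; inconclusive means results disagree or hit not tested in dose response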;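 further: Vif residues 1-94 fused to GST binding biotinylated APOBEC3G peptide 110-148; 0% = full assay without inhibitor and 100% = GST in place of GST-Vif; retest series ran down from 100 µM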
# Calb FLC – C. albicans growth modulation with fluconazole. growth inhibition, % (concentration not given with the values). 300,000 tested, 0.57% active. AID 1979. C. albicans CaCi-2 (fluconazole-resistant clinical isolate) + fluconazole, Alamar Blue growth, 48 h;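 active means most replicates above 75%; inconclusive means exactly half above 75%; inactive means most below 75%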;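 further: all wells also contain fluconazole at 8 µg/ml as a sub-toxic cotreatment; 0% = median of DMSO wells and 100% = median of geldanamycin control wells; wells of about 8 µL received 7.5 nL stock; the first replicate is given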
# B2AR ag – human beta-2 adrenergic receptor agonism by FAP; 340,000 tested, 0.43% active; response, % (concentration not given with the values); P07550; Am2.2-beta2AR cells, FAP receptor internalization, flow cytometry; reference of the scale not given here; AID 504454;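 active means response above a set limit, near 3 SD of response in nonfluorescent compounds, cut at about 42% in these data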;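 further: stock transfer was 100 nL into about 11 µL; a reference agonist was the positive control; negative values mostly stem from fluorescent compounds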
# Target sequence (P07550 whole entry, looked up): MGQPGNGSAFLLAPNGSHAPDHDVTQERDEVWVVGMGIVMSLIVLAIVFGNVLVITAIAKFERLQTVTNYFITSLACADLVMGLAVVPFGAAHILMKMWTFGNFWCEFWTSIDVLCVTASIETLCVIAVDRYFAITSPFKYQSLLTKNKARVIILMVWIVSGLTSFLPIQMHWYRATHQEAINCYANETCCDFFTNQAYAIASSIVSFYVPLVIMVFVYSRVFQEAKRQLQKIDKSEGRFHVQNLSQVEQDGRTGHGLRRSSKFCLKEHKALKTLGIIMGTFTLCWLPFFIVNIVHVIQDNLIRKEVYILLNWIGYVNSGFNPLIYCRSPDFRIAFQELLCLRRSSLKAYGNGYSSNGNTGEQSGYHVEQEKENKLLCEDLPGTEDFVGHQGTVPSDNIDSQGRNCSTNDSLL
# LANA-H2A inh – blocks KSHV LANA binding to histone H2A/H2B; inhibition, % (concentration not given with the values); AID 2629; cell-free LANA-H2A/H2B peptide, fluorescence polarization; 320,000 tested, 0.6% active; in the data active means inhibition mostly above about 10%, no sharp cut-off; inactive means mostly below about 6.7%;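 further: stock transfer was 7.5 nL into about 10 µL; 0% = median of vehicle wells and 100% = median of positive control wells; one replicate is shown; the record names a cut of 25% in any replicate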
# * marks the source's active call; other numbers are inactive results; ? = inconclusive; · = no result given.
SMILES,ALR inh,RanGTP-Impb inh,HNF4A DNA FP,Vif A3G,Calb FLC,B2AR ag,LANA-H2A inh
COC(=O)N[C@H](CC(C)=O)c1ccccc1,-1,-2.0,·,6%,-3,·,-5.8
Cc1ccc(NC(=O)CSc2cccc3cccnc23)c(C)c1,-30,-5.8,-1.8,·,-73,6,17
CCN(CC(=O)Nc1ccc2c(c1)OCCO2)S(=O)(=O)c1ccccc1,0,·,7.5,-9%,·,6,-5.7
O=C(CNS(=O)(=O)c1ccc(F)cc1)Nc1ccccc1,-2,-1.6,-0.9,·,-1,8,2.5
O=C(COC(=O)c1c[nH]c2ccccc12)Nc1ccc(F)cc1,·,·,3.3,·,·,5,-3.8
O=C(c1cccc(S(=O)(=O)N2CCCCC2)c1)N1CCN(Cc2ccccc2)CC1,·,·,1.7,2%,·,-4,1.2
Cc1ccc(NC(=O)COC(=O)c2ccc(CN3CCCC3=O)cc2)cc1C,·,·,4.4,2%,·,-3,·
COc1ccc(C(=O)Nc2cccc(/C=C/c3nc4ccccc4c(=O)[nH]3)c2)cc1,-10,-0.1,0.2,18%,7,9,-3.0
Cc1cccc(NC(=O)CN(c2ccc(C(C)C)cc2)S(=O)(=O)c2c(C)nn(C)c2C)n1,-13,2.1,-2.3,-6%,-4,3,-0.3
CC(=O)NN1C(=O)c2ccccc2NC1c1ccoc1 (centres undefined),-26,-2.0,-1.2,-7%,1,1,-1.4
CCc1cccc(NC(=O)CCS(=O)(=O)c2ccc3c(c2)NC(=O)CO3)c1,-1,4.2,2.1,·,-4,-2,1.1
CCOc1cccc(/C(O)=C2/C(=O)C(=O)N(CCOC)C2c2ccc(C)o2)c1 (centres undefined),-10,-3.0,-0.2,25%,-3,3,6.5

# Reprinted from the listing for reference:
SMILES,ALR inh,RanGTP-Impb inh,HNF4A DNA FP,Vif A3G,Calb FLC,B2AR ag,LANA-H2A inh
O=C(c1cccc(S(=O)(=O)N2CCCCC2)c1)N1CCN(Cc2ccccc2)CC1,·,·,1.7,2%,·,-4,1.2
Cc1ccc(NC(=O)COC(=O)c2ccc(CN3CCCC3=O)cc2)cc1C,·,·,4.4,2%,·,-3,·
COc1ccc(C(=O)Nc2cccc(/C=C/c3nc4ccccc4c(=O)[nH]3)c2)cc1,-10,-0.1,0.2,18%,7,9,-3.0
Cc1cccc(NC(=O)CN(c2ccc(C(C)C)cc2)S(=O)(=O)c2c(C)nn(C)c2C)n1,-13,2.1,-2.3,-6%,-4,3,-0.3

# The results go on:
SMILES,ALR inh,RanGTP-Impb inh,HNF4A DNA FP,Vif A3G,Calb FLC,B2AR ag,LANA-H2A inh
COc1ccccc1N1CCN(S(=O)(=O)c2cc3[nH]c(=O)c(=O)[nH]c3cc2C)CC1,43,0.5,-2.6,·,44,-4,3.7
CCOC(=O)C1=C(CSc2nccn2C)NC(=O)NC1c1cc(C)ccc1C (centres undefined),-6,0.5,-3.5,7%,-3,-10,-2.0
CCc1nn2cc(-c3ccccc3)nc2s1,1,0.5,1.7,7%,-29,-8,4.0
CCCCC(=O)Nc1ccc2c(c1)nc(CCNC(=O)c1ccco1)n2C,-2,2.5,0.4,·,-5,-6,-2.8
CCOC(=O)Cn1nc2sc3ccccc3n2c(=O)c1=O,-9,-2.5,-0.4,4%,-1,1,-1.7
CCN1CCN(c2nc(Nc3ccccc3)nc(N)c2[N+](=O)[O-])CC1,·,?,-0.3,25%,-2,-2,·
Cn1c(=O)n(C)c2cc(S(=O)(=O)N3CCCc4ccccc43)ccc21,·,1.5,-0.4,9%,9,-11,2.3
Cc1cc(C)c(N(C(=O)Cn2nnc3ccccc32)C(C(=O)NC(C)(C)C)c2ccsc2)c(C)c1 (centres undefined),0,-1.3,1.1,-6%,2,13,4.9
Cn1c(N)c(C(=O)CSc2nnc3n2CCCCC3)c(=O)n(C)c1=O,-2,·,0.1,·,·,-6,-3.9
CCc1cccc2c(C=C(C#N)C#N)cn(CC(=O)N3CCCCC3)c12,1,?,4.0,-5%,8,-5,0.8
CCCCC(=O)Nc1ccc(NC(=O)c2ccc(C)c([N+](=O)[O-])c2)cc1OC,-7,0.0,0.5,0%,2,-4,1.1
CCCSC1=C(C#N)C(c2cccs2)C(C(=O)Nc2ccccc2)=C(C)N1 (centres undefined),0,6.6,0.2,?,46,3,-0.5
CS(=O)(=O)N(CC(=O)N1CCN(Cc2ccccc2)CC1)c1ccccc1Br,-2,6.7,-2.1,·,6,-4,-1.9
Cc1cccc(NC(=O)c2ccc3c(=O)n(CC4CCCO4)c(=S)[nH]c3c2)c1 (centres undefined),2,-0.1,2.8,-2%,-5,4,-3.8
CC(C)Oc1ccc(C(=O)Nc2ccc(N3CCCC3)cc2)cc1,-9,-0.3,1.6,6%,-6,28,-0.5
NC(=O)NN=C1CC2CC1C1C=CCC21 (centres undefined),·,·,-2.3,-3%,·,6,·
CCOc1ccccc1CN1CCN(Cc2cc(=O)c3ccccc3[nH]2)CC1CCO (centres undefined),-4,0.9,2.0,·,-2,-8,1.4
CC(C)N(C(=O)CSc1nc2ccccc2c(=O)[nH]1)C(C)C,·,1.8,-0.2,-9%,-6,-7,5.7
Cc1ccccc1S(=O)(=O)N1[C@@H](c2cccc(Cl)c2)C(C(=O)O)=CC[C@H]1c1ccc(Cl)cc1,18,·,-1.2,·,·,10,-5.4
COc1ccc(C(=O)O/N=C(\N)c2ccc(Br)cc2)cc1,-1,3.3,3.2,2%,-1,10,3.3
CCc1ccccc1N(CC(=O)NCc1ccco1)C(=O)CCC(=O)Nc1nccs1,3,22*,2.4,8%,0,10,-0.1
COc1ccc2c(ccc[n+]2[O-])c1,·,·,3.2,-2%,·,-2,·
CCOC(=O)c1oc2c(c1C)C(=O)CCC2,0,-0.8,-0.5,6%,-16,3,0.5
CSc1ccc(CNCc2ccco2)cc1,1,0.8,-2.9,·,-6,-2,-1.1
O=C(CSc1nccc(=O)[nH]1)Nc1ccc(N2CCOCC2)c(Cl)c1,-2,2.7,0.0,·,2,-8,-5.0
COc1ccc(CNC(=O)[C@@H](NC(=O)C2CCN(C(=O)[C@@H]3CCCN3C(=O)OC(C)(C)C)CC2)C(C)C)cc1,1,8.3,2.2,·,-4,-3,-3.5
Cc1ccc(N2CCN(/N=C/c3ccccc3[N+](=O)[O-])CC2)cc1,9,0.0,0.9,?,25,16,2.9
CC(=O)c1cccc(N(C(=O)CNC(=O)c2cccs2)C(C(=O)NCC2CCCO2)c2ccccc2)c1 (centres undefined),-8,2.2,1.5,0%,1,-2,-5.7
COc1ccc(S(=O)(=O)N(C)CC(=O)NCc2ccco2)cc1,-3,?,-2.0,3%,1,-3,-1.7
Cc1cc(S(=O)(=O)NCc2ccccc2)ccc1OCC(=O)NCc1ccccn1,-2,-0.7,3.1,·,-4,1,-0.9
CCCCn1c(N)c(N(CCOC)C(=O)c2cc(Cl)nc3ccccc23)c(=O)[nH]c1=O,0,-2.3,1.6,-2%,·,9,1.7
O=[N+]([O-])c1cccc(NC(=S)N2CCN(c3ccccn3)CC2)c1,-10,·,-6.2,·,8,9,3.8
Cc1ccc(C(C)C)c(OCC(=O)N/N=C/c2ccc(S(=O)(=O)O)o2)c1,0,0.4,7.3,·,0,0,11
CSCCC(NC(=O)COc1ccccc1)C(=O)NCCOc1ccc(C)cc1 (centres undefined),-9,2.6,-4.2,3%,-3,2,-4.7
O=C(Cn1c(-c2cscn2)nc2ccccc21)Nc1ccc(Cl)cc1,37,3.7,-0.1,-5%,0,-2,-1.8
COc1cccc(OCC(=O)NCC2CCCO2)c1 (centres undefined),·,·,-0.8,·,·,0,5.0
CC(=O)c1ccccc1C(=O)N1CCC(n2nccc2NC(=O)C2CC2)CC1,-9,-2.1,0.0,·,-3,8,-15
Cc1ccc(CCN2CC(C(=O)NCCCN(C)Cc3ccccc3)CC2=O)cc1 (centres undefined),·,-1.0,-1.9,5%,-2,-2,-0.3
CCS(=O)(=O)N1CCC(C(=O)Oc2ccc(Cl)cc2)CC1,0,-2.2,-1.3,0%,13,-1,0.5
Cc1cc(C)c(C(=O)COC(=O)c2ccc([N+](=O)[O-])o2)cc1C,-72,3.3,1.4,-12%,23,6,1.8
O=C(COc1ccccc1)Nc1ccccc1N1CCCCC1,2,0.5,0.3,-4%,-3,6,5.8
COC(=O)c1ccc(/C=C/C(=O)c2ccc(OC)cc2)cc1,55,-1.7,0.3,2%,13,16,-0.8
Clc1ccc(-c2csc(N3CCSCC3)n2)cc1,7,1.6,-1.5,-2%,5,-5,-4.1
O=C(Nc1ccc2ccccc2c1)N1CCCN(CCOc2ccccc2)CC1,-24,2.2,-3.7,10%,0,-1,0.0
N#Cc1c(-c2ccc(Cl)cc2)ccn2nc(CCC(=O)O)nc12,7,1.2,11,-2%,-17,7,-3.8
Cn1c(=O)n(C)c2cc(S(=O)(=O)N3CCOCC3)ccc21,-9,-2.2,-2.0,3%,1,-2,-0.3
O=C(c1cccs1)N1CCN(C(=O)C2CCCO2)CC1 (centres undefined),-13,-3.0,0.6,12%,1,-5,-1.8
CC(NC(=O)Nc1ccccc1)c1ccccc1 (centres undefined),25,3.3,0.4,18%,1,2,0.7

# Entries above that contain fluorine (two):
SMILES,ALR inh,RanGTP-Impb inh,HNF4A DNA FP,Vif A3G,Calb FLC,B2AR ag,LANA-H2A inh
O=C(CNS(=O)(=O)c1ccc(F)cc1)Nc1ccccc1,-2,-1.6,-0.9,·,-1,8,2.5
O=C(COC(=O)c1c[nH]c2ccccc12)Nc1ccc(F)cc1,·,·,3.3,·,·,5,-3.8

# Next part:
SMILES,ALR inh,RanGTP-Impb inh,HNF4A DNA FP,Vif A3G,Calb FLC,B2AR ag,LANA-H2A inh
C/C(=N\Nc1cccc2cccnc12)c1ccc(C)cc1,-28,?,4.9,-2%,10,3,-4.8
COc1ccc(NC(=O)N2CCN(c3nc4ccccc4n3C(C)C)CC2)cc1,-2,1.9,-0.3,-12%,6,5,1.5
COc1cc(C(=S)N2CCCC2)ccc1OS(=O)(=O)c1ccc(NC(C)=O)cc1,47,0.1,2.7,-1%,18,3,4.5
COc1cc(CC(=O)Nc2ccc(S(=O)(=O)NC3=NCCCCC3)cc2)cc(OC)c1OC,·,4.1,2.7,-7%,-4,-15,-6.8
CC1CCCC(=C\c2ccccc2)/C1=N/O (centres undefined),-4,1.4,0.8,9%,-23,-7,-0.4
COc1ccc(NC(=O)CCc2nnc3ccc(NCc4ccco4)nn23)cc1,-1,1.4,1.5,·,4,3,12
CCN(CC)Cc1c(C(=O)N/N=C/c2cccc3ccccc23)nnn1-c1nonc1N,-12,-4.7,1.3,·,1,2,-3.8
O=C(Nc1nccs1)c1nc[nH]c1C(=O)N1CCc2ccccc2C1,-9,·,-4.6,·,·,-14,-2.0
Cc1cc(-c2ccccc2)n2ncc(-c3ccccc3)c2n1,2,3.9,2.6,-6%,2,-5,1.9
CC(C)(C)c1ccc(OCC(=O)OCCNC(=O)c2cccnc2)cc1,-5,-1.0,3.0,16%,7,-1,1.4
CC(=O)OCc1c(C(F)(F)F)nn(C)c1SCc1ccc(Cl)cc1,3,2.8,-1.4,21%,11,-6,0.4
O=Cc1c(N2CCCCCC2)nc2ccccn2c1=O,0,-0.9,5.2,6%,-1,-9,1.3
COc1ccc(NC(=O)CCCN2C(=O)C(c3ccccc3)Oc3cccnc32)c(OC)c1 (centres undefined),-2,2.7,0.0,·,4,5,1.2
O=C(C1=COCCO1)N1CCN(S(=O)(=O)c2cccc(Br)c2)CC1,6,·,-4.2,7%,·,5,-2.7
Cn1nc(C(=O)OCC(=O)Nc2ccc(Cl)cc2Cl)c2ccccc2c1=O,2,·,0.9,-13%,·,-3,-2.6
O=C(NCc1cccs1)C1CC(=O)N(Cc2ccccc2)C1 (centres undefined),2,·,1.3,-2%,·,0,-3.7

# Screening data from PubChem BioAssay.
